Mtb H37Rv – M. tuberculosis H37Rv growth inhibitors, H37Rv strain (AID 1626); M. tuberculosis H37Rv growth inhibition; higher % means a stronger effect; one-dose inhibition, % at 10 µM; IC50 in µM for titrated hits; 0.95% of 220,000 active;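 active = confirmed in a dose series; inconclusive = inhibition above 80% but not taken into the dose series; inactive = below 80% or under 30% at every dose of the series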;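 also: bacteria incubated seven days before Alamar blue readout; 0% = bacteria only wells and 100% = bacteria with antibiotic wells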
Arbovirus anti – antivirals against arbovirus infection, primary screen, cell-based, full library, 10K replicate subset; arbovirus infection cell-based antiviral screen; 0.37% of 200,000 active; inhibition, % at 10 µM;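 active = inhibition from about 30%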;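 also: bluetongue infection of BSR cells; cell survival read as ATP light after 72 h; 0% = infected wells without compound and 100% = uninfected wells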
Mtb betalactam – beta-lactam sensitization of Mtb H37Rv, H37Rv | inhibition, % at 25 µM | M. tuberculosis H37Rv growth with meropenem, percent inhibition; hits of this screen are not shown here | 0.27% of 330,000 active | AID 434955, 2010;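 active = about 74% or more and at least 40 points above the plate without the antibiotic, then above 30% in a dose series; inconclusive = first-round hits that could not be retested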;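 also: growth measured after seven days incubation then overnight dye step; 0% = bacteria only wells and 100% = bacteria with antibiotic; twin plates without the antibiotic show which effects depend on it; some results filed as inactive read as strong as hits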
YopH PTP inh – YopH tyrosine phosphatase inhibitors, primary screen, biochemical, fluorescence Ex485/Em525; YopH tyrosine phosphatase [Yersinia enterocolitica]; inhibition, %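 (about 10 µM by stock and volumes)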; 0.16% of 140,000 active;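 active = inhibition of 50% or more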;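 also: controls were vehicle for no effect and minimum signal wells for full effect; inactives centre near -20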
RecA intein inh – Mtb RecA intein splicing inhibitors, primary screen, biochemical, fluorescence, HTS. AID 2221, 2009. cell-free RecA intein splicing. inhibition, %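 (about 9 µM by stock and volumes)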. 0.75% of 290,000 active. Protein RecA (Mycobacterium tuberculosis (strain ATCC 25618 / H37Rv)), P9WHJ3; in the data active = inhibition above about 30%; inconclusive = no clear call, values can overlap the other calls;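 also: 0% = vehicle wells and 100% = reference inhibitor control wells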
Target sequence (P9WHJ3 whole entry, looked up): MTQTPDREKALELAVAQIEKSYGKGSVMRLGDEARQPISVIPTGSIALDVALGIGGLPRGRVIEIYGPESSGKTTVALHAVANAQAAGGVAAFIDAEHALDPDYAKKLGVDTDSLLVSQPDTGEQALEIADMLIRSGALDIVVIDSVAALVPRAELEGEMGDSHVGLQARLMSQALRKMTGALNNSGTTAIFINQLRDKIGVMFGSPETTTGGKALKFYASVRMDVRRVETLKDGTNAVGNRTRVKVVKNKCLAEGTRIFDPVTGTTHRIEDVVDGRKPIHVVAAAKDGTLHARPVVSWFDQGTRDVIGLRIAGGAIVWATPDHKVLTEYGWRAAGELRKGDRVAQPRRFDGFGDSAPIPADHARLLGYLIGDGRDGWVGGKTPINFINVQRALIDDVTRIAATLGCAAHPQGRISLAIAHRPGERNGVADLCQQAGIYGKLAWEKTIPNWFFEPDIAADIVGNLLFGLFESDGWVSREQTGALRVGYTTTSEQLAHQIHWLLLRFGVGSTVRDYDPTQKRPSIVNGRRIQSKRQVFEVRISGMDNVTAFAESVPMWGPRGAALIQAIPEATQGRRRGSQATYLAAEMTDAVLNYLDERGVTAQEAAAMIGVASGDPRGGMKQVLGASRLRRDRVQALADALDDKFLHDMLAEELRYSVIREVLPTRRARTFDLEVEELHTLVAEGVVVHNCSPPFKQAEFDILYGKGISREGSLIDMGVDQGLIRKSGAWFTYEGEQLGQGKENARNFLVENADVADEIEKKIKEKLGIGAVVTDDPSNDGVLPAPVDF
Arbovirus anti repeat – further read-out of Arbovirus anti, marked with its call; inhibition, %; measured here: 10K subset replicate screen; many hits read low in the repeat;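 first of two repeat runs on a subset; 0% = infected and 100% = uninfected wells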
The depositor's hits bear a star; ? = inconclusive; . = not tested or not shown.

SMILES	Mtb H37Rv	Arbovirus anti	Mtb betalactam	YopH PTP inh	RecA intein inh	others
O=C(NC1CCN(C(=O)Nc2ccc(F)cc2)CC1)c1ccc(F)cc1	.	.	5	.	-2.4
O=C(NNC(=S)NC1CCCCC1)c1ccc(Cl)s1	-1%	38*	7	.	4.7
CCCNC(=O)Cn1cnc2sc(C(=O)N3CCN(c4ccc(F)cc4)CC3)c(C)c2c1=O	-2%	-7	-6	-17	-0.6
O=C1C2C(C(=O)N1/N=C/c1cc([N+](=O)[O-])c(O)cc1O)C1C=CC2C12CC2 (stereo not given)	5%	4	-1	.	-1.4
Cc1cccn2c(=O)c(/C=C(\C#N)C(=O)NCc3ccco3)c(N3CCCCC3)nc12	9%	-11	-2	-9	-0.9
COc1ccc(OC)c(S(=O)(=O)NCCCc2ccccc2)c1	.	.	1	.	0.2
COc1ccccc1-c1nc(-c2ccc(C(=O)O)cc2)no1	-13%	.	-11	.	0.6
O=C(COC(=O)c1cccc(C(=O)OCC(=O)NC2CCCCC2)n1)NC1CCCCC1	3%	-4	3	-22	1.0
COc1cccc2sc(N(CCCN(C)C)C(=O)c3ccc(S(=O)(=O)N4CCCc5ccccc54)cc3)nc12	.	.	6	.	6.3
COCCOc1cc(COC)nc(-c2cccc(C)c2)n1	19%	.	-1	.	1.2

Reprinted from the part before: 2 entries, then new ones.
SMILES	Mtb H37Rv	Arbovirus anti	Mtb betalactam	YopH PTP inh	RecA intein inh	others
COc1cccc2sc(N(CCCN(C)C)C(=O)c3ccc(S(=O)(=O)N4CCCc5ccccc54)cc3)nc12	.	.	6	.	6.3
COCCOc1cc(COC)nc(-c2cccc(C)c2)n1	19%	.	-1	.	1.2
O=c1c2c(nc3cc(-c4ccc(Cl)cc4)[nH]n13)CCS2	7%	-2	9	-24	-1.5
Cc1cccc(CC(=O)NCC(=O)NCc2cc(=O)n(C)c(=O)n2C)c1	.	.	0	.	-0.7
C=CCc1c(O)c(CC)cc2c(C)cc(=O)oc12	10%	.	0	.	-100
CCCc1nc2ccccc2c(C(=O)OCC(=O)Nc2cccc(S(=O)(=O)N3CCOCC3)c2)c1CC	7%	-26	18	-11	1.4
Cc1cccc(-c2nnc(SCC(=O)N3CCCC3)o2)c1	.	.	75	.	-3.1
C=CCN1C=C2C(=O)C(C)(OC(=O)c3ccco3)C(=O)C(C=C)=C2C=C1C1CC1 (stereo not given)	2%	.	16	.	9.4
COc1ccc(-c2csc(Nc3ccc(C)cn3)n2)cc1	27%	7	84	.	-2.2
COc1cccc(NC(=O)[C@@H]2CCCN2C(=O)[C@@H]2Cc3ccccc3CN2C(=O)OC(C)(C)C)c1	.	.	2	.	2.0
CC(OC(=O)CCN=C1NS(=O)(=O)c2ccccc21)C(=O)NCc1ccccc1 (stereo not given)	.	.	-9	.	-2.7
CC(=O)c1cccc(NC=C2C(=O)OC3(CCCCC3)OC2=O)c1	7%	7	-6	-6	-0.1
CC(=O)N1CCN2C(=O)C1CCCC(=O)c1cc(C)ccc12 (stereo not given)	-2%	-2	-5	-13	3.8
Cc1cccc(C(=O)NC(CC(=O)O)c2ccc(OC3CCCC3)cc2)c1[N+](=O)[O-] (stereo not given)	7%	2	-1	.	-0.4
O=C(CCc1ccccc1)N/N=C/c1cc(Br)ccc1O	1%	-11	5	-3	1.8
C/C(=N\NC(=O)CC1N=C(Cc2ccccc2)NNC1=O)c1ccc(Br)cc1 (stereo not given)	-8%	.	-3	.	1.2
CS(=O)(=O)N(CCc1ccccc1)CC(=O)NCc1ccccc1	3%	2	-5	.	0.5
COC(=O)C1=C(N)Oc2cc(C)n(Cc3cccnc3)c(=O)c2C1c1ccc(OC)c(OC)c1 (stereo not given)	.	2	-5	-41	-2.4
Cc1sc2ncn3cnnc3c2c1C	0%	3	-1	-29	-2.6
CC(=O)c1ccc2c(c1)OCCOCCOCCOCCOCCO2	5%	.	20	.	-0.1
N#Cc1ccc(-c2csc(-c3ccno3)n2)cc1	-3%	.	-3	.	1.2
OCCN1CCN(c2nc(NCc3ccco3)c3ccccc3n2)CC1	-2%	-3	-4	-22	6.8
CCc1sc(C(=O)Nc2ccccc2N2CCOCC2)cc1C	7%	15	6	.	1.1
CCCN1CCN(CCCNC(=O)C(CC)n2nc(C)c3sc4ccccc4c3c2=O)CC1 (stereo not given)	.	.	-4	.	3.6
COc1ccccc1C(=O)Nc1ccnn1C1CCN(Cc2cc(C)c(C)cc2C)CC1	.	.	-4	.	3.5
Clc1ccc(-c2nnc3sc(-c4ccccn4)nn23)cc1	5%	-1	.	-42	.
Cc1ccc(C(=O)N/C(=C\c2cccs2)C(=O)NC2CCCCC2)cc1	-4%	-1	9	-24	0.2
Cc1ccc(-n2nc3c(=O)n(CC(=O)NCc4ccccn4)nc(C)c3c2C)cc1	.	.	-4	.	5.5
CSCCC(NS(=O)(=O)c1cccc(C(F)(F)F)c1)C(=O)N(C)Cc1ccc2c(c1)OCCO2 (stereo not given)	.	.	-12	.	4.2
CS(=O)(=O)Nc1ccc(S(=O)(=O)N2CCCC2)cc1	-5%	3	-7	.	-5.6
O=C(c1nn2c(C(F)(F)F)cc(-c3cccs3)nc2c1Br)N1CCCc2ccccc21	-1%	-15	3	-18	4.7
O=C(COC(=O)c1ncc(Cl)c(Cl)c1Cl)Nc1ccccc1OC(F)F	4%	-5	3	2	0.2
O=C(c1cn(CC(=O)N2CCCCC2)c2ccccc12)C1CC1	-3%	-6	-8	-47	0.4
Cc1ccc(N(C(C)C(=O)N2CCCCC2)S(C)(=O)=O)cc1C (stereo not given)	-10%	6	-2	-39	-0.9
COc1ccc(/C=N/Nc2nc(-c3cccc(S(=O)(=O)N4CCCC4)c3)cs2)c(OC)c1	1%	-18	60	-19	-2.7
CCc1cc(/C(Cc2ccc3ccccc3n2)=N\O)c(O)cc1O	2%	-8	0	0	9.7
S=C(c1c[nH]c2ccccc12)N1CCCC1	-5%	-4	-2	.	0.0
COc1cc(CC(=O)OCC(=O)c2ccc3c(c2)OCCO3)cc(OC)c1OC	-4%	-14	7	-23	-0.2
COc1cc(OC)cc(C(=O)NNC(=O)c2ccc(S(=O)(=O)N3CC(C)OC(C)C3)cc2)c1 (stereo not given)	1%	4	-5	.	-0.3
CCn1c(C)c(C(C)=O)c(N2CCN(c3ccccn3)CC2)nc1=S	-1%	1	6	-1	1.8
Cc1c(Cl)cccc1NC(=O)Nn1cnnc1	.	.	-7	.	4.6
CCN(CC)C(=O)CSc1nc2ncc(Cl)cc2[nH]1	-4%	0	-19	-31	-11

Five successive compounds out of the list so far:
SMILES	Mtb H37Rv	Arbovirus anti	Mtb betalactam	YopH PTP inh	RecA intein inh	others
COc1cc(CC(=O)OCC(=O)c2ccc3c(c2)OCCO3)cc(OC)c1OC	-4%	-14	7	-23	-0.2
COc1cc(OC)cc(C(=O)NNC(=O)c2ccc(S(=O)(=O)N3CC(C)OC(C)C3)cc2)c1 (stereo not given)	1%	4	-5	.	-0.3
CCn1c(C)c(C(C)=O)c(N2CCN(c3ccccn3)CC2)nc1=S	-1%	1	6	-1	1.8
Cc1c(Cl)cccc1NC(=O)Nn1cnnc1	.	.	-7	.	4.6
CCN(CC)C(=O)CSc1nc2ncc(Cl)cc2[nH]1	-4%	0	-19	-31	-11

The main list resumes; the five compounds before the break are reprinted first.
SMILES	Mtb H37Rv	Arbovirus anti	Mtb betalactam	YopH PTP inh	RecA intein inh	others
COc1cc(CC(=O)OCC(=O)c2ccc3c(c2)OCCO3)cc(OC)c1OC	-4%	-14	7	-23	-0.2
COc1cc(OC)cc(C(=O)NNC(=O)c2ccc(S(=O)(=O)N3CC(C)OC(C)C3)cc2)c1 (stereo not given)	1%	4	-5	.	-0.3
CCn1c(C)c(C(C)=O)c(N2CCN(c3ccccn3)CC2)nc1=S	-1%	1	6	-1	1.8
Cc1c(Cl)cccc1NC(=O)Nn1cnnc1	.	.	-7	.	4.6
CCN(CC)C(=O)CSc1nc2ncc(Cl)cc2[nH]1	-4%	0	-19	-31	-11
O=C(c1cc(-c2ccc(Cl)cc2)n[nH]1)N1CCN(C(=O)c2ccco2)CC1	.	.	?	.	-1.3
COC(=O)C1CSC(C(=O)OC)N1C(=O)CN1CCN(c2ccccc2)CC1 (stereo not given)	0%	6	6	.	-0.7
O=C(Nc1ncc(Cc2cccc(Cl)c2)s1)c1ccc([N+](=O)[O-])cc1	-5%	-18	-7	-15	-2.2
O=C(CCCc1c[nH]c2ccccc12)N1CCCCCC1	-9%	3	-2	-24	3.2
N#CCC(=O)NN1Cc2ccccc2C1=N	6%	-2	-7	-28	-0.9
COc1cccc(C(=O)C2=NN(C(C)=O)CC2c2ccco2)c1 (stereo not given)	2%	-1	-8	.	0.0
CCOC(=O)CNC(=O)C12CC3CC(CC(C3)C1)C2	5%	10	2	.	-2.4
Cc1ccc(S(=O)(=O)Nc2csc(C)c2C(=O)O)cc1	-3%	.	1	.	1.1
CS(=O)(=O)N1CCN(c2ccccc2NC(=O)Cc2ccc(Cl)cc2)CC1	2%	-4	-18	2	2.3
COc1ccc(CSc2nnnn2Cc2ccccc2)cc1OC	-4%	4	7	-26	0.9	Arbovirus anti repeat=2
CSc1nc(O)c(Nc2cccc(Cl)c2)c(=O)[nH]1	1%	.	-3	.	76*
CC(C)c1ccccc1OCC(O)CN1CCN(S(=O)(=O)c2ccc([N+](=O)[O-])cc2)CC1 (stereo not given)	.	.	7	.	1.4
Cn1c(=O)c2c(ncn2CC(=O)Nc2nc(-c3ccccc3Cl)cs2)n(C)c1=O	3%	6	1	-34	0.5
CCOc1ccc(-n2c(SCc3ccc([N+](=O)[O-])cc3)nnc2-c2ccc(OC)cc2)cc1	1%	3	10	-46	0.6
CCNc1c(NC(=O)COc2ccc(Cl)cc2)c(=O)oc2ccccc12	.	.	7	.	-0.7
Cc1ccc(N2C(=O)c3ccccc3C2=O)nc1	.	.	-4	.	2.6
O=C(CSc1nc(O)cc(=O)n1-c1ccccc1)NCc1ccccc1	1%	-2	-9	-13	4.3
O=C(C1=NN[C@@H]2C(=O)N(Cc3ccccc3)C(=O)[C@H]12)c1ccc([N+](=O)[O-])cc1	-2%	.	2	.	1.4
CC1(C)Cc2c(sc(NC(=O)COc3ccc(Cl)cc3Cl)c2C(N)=O)C(C)(C)N1	.	.	7	.	-0.8
Cn1c(SCC2CCCCC2)nnc1-c1ccncc1	-13%	4	-2	-11	-2.5
Nc1cc2nsnc2cc1Br	-7%	-1	-17	100*	-1.6
O=C(Oc1cccnc1)c1cc2ccccc2oc1=O	1%	2	1	-40	4.5
CN(C)S(=O)(=O)Nc1cc(Cl)cc(Cl)c1	3%	13	-2	.	-5.4
CCN(CC)S(=O)(=O)c1ccc(N2CCCC2)c(NC(=O)c2ccc(OC)cc2OC)c1	-1%	10	-5	.	1.9

A portion of the library, so the mix of outcomes need not match the whole.
